Compound activity deposited in PubChem by PCMD.
Biofilm kill mix: mixtures killing C. albicans biofilm; C. albicans biofilm persisters + clotrimazole, fluorescence viability; primary screen in compound mixtures of four per well; inhibition, % at 7.6 µM; 120,000 compounds, 0.02% hits; AID 1242;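 active = inhibition above 30.3% in the primary screen of four-compound pools, then above 30% when the compound was retested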;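 also: compounds exposed to preformed 24 h biofilms for 48 h; the number belongs to the whole pool; some results filed as inactive read as strong as hits; inactives centre near 12; 0% = biofilm with clotrimazole alone and 100% = kill control; retested singly at about 60 µM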
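Probe or stimulus – Clotrimazole 50 µg/mL co-treatment · System – C. albicans biofilms · Schedule – 24 h biofilm formation, then 48 h compound exposure, 37 °C · Evaluation – percent inhibition of biofilm viability · Technique – 2-h Alamar Blue fluorescence, 535/590 nm excitation/emission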
* = called active by the depositor. A portion of the library (hit frequency here may not be typical).

What do the screens show for `Cc1nn(Cc2ccc(Cl)cc2Cl)c(Cl)c1C(=O)Nc1ccc(OC(F)F)cc1`?
Biofilm kill mix: 12

Results for COc1cc2c(cc1OC)[C@@]13CCN4CC5=CCO[C@H]6CC(=O)N2[C@H]1[C@H]6[C@H]5C[C@H]43 ?
Biofilm kill mix: 10

Results for O=C(O)c1cccc2nc3ccccc3nc12 ?
Biofilm kill mix: 27

How did O=[N+]([O-])c1ccc(N2CCNCC2)cc1Sc1ccccn1 do in these assays?
Biofilm kill mix: 10

How did O=C1NC(=O)N(c2cccc(F)c2)C(=O)/C1=C/c1ccc(N2CCOCC2)cc1 do in these assays?
Biofilm kill mix: 14

How did COC(=O)C1=CO[C@@H](C)[C@@H]2CN3CC[C@@]4(C(=O)Nc5ccccc54)[C@@H]3C[C@H]12 do in these assays?
Biofilm kill mix: 9

How did CCCCCc1nc2c(c(=O)c3ccccc3n2C)c(=O)n1C1CCCCCC1 do in these assays?
Biofilm kill mix: 15

Results for Cc1ccc(OP(N)(=O)Oc2ccc(C)cc2)cc1 ?
Biofilm kill mix: 20

How did Cn1c(NN=O)nc2ccccc21 do in these assays?
Biofilm kill mix: 18

Results for Cc1cc(C)cc(N2C(=O)NC(=O)/C(=C\c3cc(C)n(C)c3C)C2=O)c1 ?
Biofilm kill mix: 5

Results for COc1cc2c(cc1OC)CC[N+](C)=C2 ?
Biofilm kill mix: 20

What do the screens show for `Cc1ccccc1OCCCn1cc(C(=O)C(=O)N2CCOCC2)c2ccccc21`?
Biofilm kill mix: 9

Results for CC/C(=C\C=C\[C@@H]1C=C[C@@H]2CCC[C@H]2[C@@H]1C(=O)c1ccc[nH]1)[C@@H]1O[C@@H]([C@@H](C)C(=O)O)CC[C@@H]1C ?
Biofilm kill mix: 2

Results for CCN1C(=O)/C(=C\c2ccc([N+](=O)[O-])s2)C(=O)NC1=S ?
Biofilm kill mix: 14

How did N#CCCn1cc(C(=O)O)c(-c2cccc([N+](=O)[O-])c2)n1 do in these assays?
Biofilm kill mix: 8

Results for Cc1ccc2c(c1)CCCN2N=O ?
Biofilm kill mix: 10

Results for O=c1[nH]c(=S)n(C2CC2)c(O)c1C=NCCN1CCOCC1 ?
Biofilm kill mix: 6

Results for CSc1ccccc1C(=O)C1CCCN(Cc2cccc(C)n2)C1 (stereo unspecified) ?
Biofilm kill mix: 23

How did CCN1CCN(c2ccc(N)c(C)c2)CC1 do in these assays?
Biofilm kill mix: 4

How did Cc1ccccc1N1C(=O)CC(=O)N(c2ccccc2C)C1=O do in these assays?
Biofilm kill mix: 11

Next part; it opens with the 3 that closed the last part.
Results for CSc1ccccc1C(=O)C1CCCN(Cc2cccc(C)n2)C1 (stereo unspecified) ?
Biofilm kill mix: 23

How did CCN1CCN(c2ccc(N)c(C)c2)CC1 do in these assays?
Biofilm kill mix: 4

How did Cc1ccccc1N1C(=O)CC(=O)N(c2ccccc2C)C1=O do in these assays?
Biofilm kill mix: 11

How did Cc1c(N=Nc2c(O)n(Cc3ccccc3)c(=O)[nH]c2=O)c(=O)n(-c2ccccc2)n1C do in these assays?
Biofilm kill mix: 17

What do the screens show for `c1ccc(-c2ccc(-c3n(-c4ccccn4)c4ccccc4[n+]3-c3ccccn3)cc2)cc1`?
Biofilm kill mix: 5

How did N#CC1=C(N)Oc2c(c(=O)sc3ccccc23)C1c1cccnc1 (stereo unspecified) do in these assays?
Biofilm kill mix: 6

What do the screens show for `C=CCn1c(O)c(C(CC)=NCc2ccco2)c(=O)[nH]c1=O`?
Biofilm kill mix: 28

How did O=C(CN1CC=C(c2ccccc2)CC1)Nc1cc(Cl)ccc1Cl do in these assays?
Biofilm kill mix: 11

Results for Cc1ccc(-n2c(O)c(C=NCc3ccco3)c(=O)[nH]c2=S)cc1C ?
Biofilm kill mix: 13

Results for CC(=NCc1ccc2c(c1)OCO2)c1c(O)n(-c2ccccc2)c(=O)[nH]c1=O ?
Biofilm kill mix: 8

What do the screens show for `CN1CCN(c2ccc3nccnc3c2)CC1`?
Biofilm kill mix: 8

How did Cc1ccc(CN2CCCC(C(=O)c3sccc3C)C2)o1 (stereo unspecified) do in these assays?
Biofilm kill mix: 6

Results for Cc1ccc(/C=C2/C(=O)NC(=O)N(C)C2=O)cc1 ?
Biofilm kill mix: 8

Results for Cc1ncc(CN2CCCC(C(=O)c3sccc3C)C2)s1 (stereo unspecified) ?
Biofilm kill mix: -8

What do the screens show for `O=C(CN1CC=C(c2ccccc2)CC1)NC(=O)NCc1ccccc1`?
Biofilm kill mix: 11

Results for COc1cccc(-c2nc3ccc(N4CCN(C)CC4)cc3[nH]2)c1 ?
Biofilm kill mix: 9

Results for COc1ccccc1CN1CCCC(C(=O)c2ccccc2SC)C1 (stereo unspecified) ?
Biofilm kill mix: 15

Results for C#CCNc1ccncc1S(=O)(=O)NC(=O)NC(C)C ?
Biofilm kill mix: 9

What do the screens show for `CCn1c(O)c(N=Nc2cccc(S(=O)(=O)N3CCOCC3)c2)c(=O)n(CC)c1=S`?
Biofilm kill mix: 13

How did O=C1NC(=O)C(=Cc2ccccc2Oc2ccc(F)cc2)C(=O)N1 do in these assays?
Biofilm kill mix: 11

What do the screens show for `COP(=O)(Cc1ccc(C#N)o1)OC`?
Biofilm kill mix: 10

Results for CCOP(=O)(OCC)C(NC(=O)c1cccc(C)c1)C(Cl)(Cl)Cl (stereo unspecified) ?
Biofilm kill mix: 3

How did O=C1CN=C(c2ccccc2)c2cc(Br)ccc2N1Cc1cc(=O)n2ccccc2n1 do in these assays?
Biofilm kill mix: 15

Results for CN1CCN(c2ccc(C(N)=O)cc2[N+](=O)[O-])CC1 ?
Biofilm kill mix: 12

What do the screens show for `CSc1nc2ccc(C)cc2c(=O)n1-c1cccnc1`?
Biofilm kill mix: 8

Results for CN1C2CCC1C(COC(=O)c1ccccc1)C(O)C2 (stereo unspecified) ?
Biofilm kill mix: 19

How did O=C1CN=C(c2ccc(Br)cc2)c2c(sc3c2CCCC3)N1CCN1CCCCC1 do in these assays?
Biofilm kill mix: 16

Results for Cc1ccsc1C(=O)C1CCCN(Cc2ccc(O)cc2)C1 (stereo unspecified) ?
Biofilm kill mix: 12

How did c1cnc(N2CCNCC2)nc1 do in these assays?
Biofilm kill mix: 2

How did Cc1ccc2c(c1)=NC(=O)/C(=C/c1c(O)[nH]c(=O)[nH]c1=O)C=2 do in these assays?
Biofilm kill mix: 22

Results for Cc1ccsc1C(=O)C1CCCN(Cc2cc(C(C)C)n[nH]2)C1 (stereo unspecified) ?
Biofilm kill mix: -4

How did Cc1ccc(CNCCc2ccccc2F)cc1 do in these assays?
Biofilm kill mix: 7

Results for CCC(C)n1c(O)c(/C=N/N2CCOCC2)c(=O)[nH]c1=S (stereo unspecified) ?
Biofilm kill mix: 9

Results for CCN(CC)c1ccc(/C=C2\C(=O)NC(=S)N(C)C2=O)o1 ?
Biofilm kill mix: 22

What do the screens show for `Cc1ccc(Sc2ccc(C=C3C(=O)N(C)C(=O)N(C)C3=O)o2)cc1`?
Biofilm kill mix: 5

Results for Fc1cccc(F)c1-c1nc(-c2ccc(Cl)cc2)no1 ?
Biofilm kill mix: -2

What do the screens show for `CNC(=O)O/N=C(\N)Cc1csc2ccccc12`?
Biofilm kill mix: 22

Results for CC1=C(C(=O)Nc2ccccc2)S(=O)(=O)CCO1 ?
Biofilm kill mix: 14

How did CC(Cc1ccccc1)NC(=O)/C=C/c1ccc(Cl)cc1 (stereo unspecified) do in these assays?
Biofilm kill mix: 18

What do the screens show for `c1ccc(C2CN3CCC2CC3)cc1` (stereo unspecified)?
Biofilm kill mix: 29

Results for COc1ccc(NC(c2ccccc2F)P(=O)(Oc2ccccc2)Oc2ccccc2)cc1 (stereo unspecified) ?
Biofilm kill mix: 19

How did Cc1ccccc1NC(=S)NC(NC(=O)CF)C(Cl)(Cl)Cl (stereo unspecified) do in these assays?
Biofilm kill mix: 9

How did Oc1ccc2ccccc2c1CN1CC=C(c2ccccc2)CC1 do in these assays?
Biofilm kill mix: 4

Results for OC(c1ccncc1)(c1ccc(F)cc1)c1ccc(F)cc1 ?
Biofilm kill mix: 14

How did COc1ccccc1[As](=O)(O)CC(O)COc1ccc(Cl)cc1Cl (stereo unspecified) do in these assays?
Biofilm kill mix: 18

What do the screens show for `O=C(CN1CCOCC1)Nc1ccc(Br)cc1C(=O)c1ccccc1`?
Biofilm kill mix: 16

Results for CC(C)CCN1CCN(Cc2c(F)cccc2Cl)CC1CCO (stereo unspecified) ?
Biofilm kill mix: 27

How did CCOP(=O)(Cc1ccc(C(=O)CC)o1)OCC do in these assays?
Biofilm kill mix: 27

What do the screens show for `COc1cc(OC)c(OC)cc1/C=C1\C(=O)NC(=O)N(Cc2ccccc2)C1=O`?
Biofilm kill mix: 12

Results for C=CCn1c(O)c(C(C)=NC2CCN(Cc3ccccc3)CC2)c(=O)[nH]c1=O ?
Biofilm kill mix: 9

What do the screens show for `COc1cc(/C=C/c2nc3ccccc3c(=O)n2-c2cccc(O)c2)ccc1O`?
Biofilm kill mix: 17

Results for CCCCCCC(=O)N/N=C/c1c(O)n(C2CC2)c(=S)[nH]c1=O ?
Biofilm kill mix: 24

How did CN1CCN(c2cc(N3CCCCCC3)c(F)cc2[N+](=O)[O-])CC1 do in these assays?
Biofilm kill mix: 8

Results for CC(C)N1C(=O)NC(=O)C2(Cc3cc([N+](=O)[O-])ccc3N(C)C2c2ccccc2)C1=O (stereo unspecified) ?
Biofilm kill mix: 3

How did CC/C(=N\Nc1ccccc1)c1c(O)n(-c2ccc(OC)cc2)c(=O)[nH]c1=O do in these assays?
Biofilm kill mix: 21

How did Cc1ccsc1C(=O)C1CCCN(Cc2cnn(C)c2)C1 (stereo unspecified) do in these assays?
Biofilm kill mix: 16

What do the screens show for `CC(C)(C)NC(=O)C1CC2CCCCC2CN1` (stereo unspecified)?
Biofilm kill mix: 3

What do the screens show for `Cc1nc2ccccc2c(=O)n1-c1ccc(Br)cc1[N+](=O)[O-]`?
Biofilm kill mix: 21

Results for O=C(/C=C/c1ccc2c(c1)OCO2)c1c(O)n(CCC2=CCCCC2)c(=O)[nH]c1=O ?
Biofilm kill mix: 11

Results for COc1ccc(C(=O)Oc2cccc3cccnc23)cc1S(=O)(=O)N1CCOCC1 ?
Biofilm kill mix: 6

What do the screens show for `O=C1NC(=O)C(=Cc2cc3c(cc2[N+](=O)[O-])OCO3)C(=O)N1`?
Biofilm kill mix: 32

How did COc1cccc(NP(=O)(Oc2ccc(Cl)cc2)Oc2ccc(Cl)cc2)c1 do in these assays?
Biofilm kill mix: -13

What do the screens show for `O=C1/C(=C\c2ccccc2)C2OCC=C3CN4CCC56c7ccccc7N1C5C2C3CC46` (stereo unspecified)?
Biofilm kill mix: 10

Sorted by molecular weight (highest first): some entries from above
How did COc1ccccc1[As](=O)(O)CC(O)COc1ccc(Cl)cc1Cl (stereo unspecified) do in these assays?
Biofilm kill mix: 18

Results for COc1cc2c(cc1OC)[C@@]13CCN4CC5=CCO[C@H]6CC(=O)N2[C@H]1[C@H]6[C@H]5C[C@H]43 ?
Biofilm kill mix: 10

Results for COc1cccc(-c2nc3ccc(N4CCN(C)CC4)cc3[nH]2)c1 ?
Biofilm kill mix: 9

Results for Cc1ncc(CN2CCCC(C(=O)c3sccc3C)C2)s1 (stereo unspecified) ?
Biofilm kill mix: -8

The results go on.
Results for O=[N+]([O-])c1ccc(N2CCCC2)c2ncccc12 ?
Biofilm kill mix: 15

How did CC(Cc1ccc(O)cc1)NCC(O)c1cc(O)cc(O)c1 (stereo unspecified) do in these assays?
Biofilm kill mix: 17

How did COc1c2c(cc3c1OCO3)CC[N+](C)=C2 do in these assays?
Biofilm kill mix: 14

Results for O=c1c2ccccc2nc(C[n+]2ccccc2)n1-c1cccc(C(F)(F)F)c1 ?
Biofilm kill mix: 25

What do the screens show for `Cc1nn(Cc2ccccc2Cl)c(C)c1C(=O)OCC(=O)NC1CCS(=O)(=O)C1` (stereo unspecified)?
Biofilm kill mix: 22

Results for COc1ccc(-n2c(O)c(/C(C)=N/N3CCCCCC3)c(=O)[nH]c2=O)cc1 ?
Biofilm kill mix: 16

How did CCCCC(C)C(OC(=O)CC(CC(=O)O)C(=O)O)C(CC(C)CC(O)CCCCC(O)CC(O)C(C)N)OC(=O)CC(CC(=O)O)C(=O)O (stereo unspecified) do in these assays?
Biofilm kill mix: 2

How did Cc1ccc(-n2c(C)cc(/C=C3/C(=O)NC(=O)N(C)C3=O)c2C)cc1 do in these assays?
Biofilm kill mix: 11

How did COc1cc(C)c(-c2nc(CN3C[C@@H]4C[C@@H](C3)c3cccc(=O)n3C4)c(C)o2)cc1C do in these assays?
Biofilm kill mix: 12

How did O=C(COc1ccccc1)c1cn(Cc2ccccc2)c2ccccc12 do in these assays?
Biofilm kill mix: 20

What do the screens show for `Cc1cccn2c(=O)c3c(nc12)N1CCCCCC1C1(C3)C(=O)N(C)C(=O)N(C)C1=O` (stereo unspecified)?
Biofilm kill mix: 16

How did O=c1[nH]c(=O)n(-c2ccc(Cl)cc2)c(O)c1C=Nc1ccc(S(=O)(=O)Nc2nccs2)cc1 do in these assays?
Biofilm kill mix: 9

How did O=C(N/N=C/c1c(O)n(CCc2ccccc2)c(=O)[nH]c1=O)c1ccccc1O do in these assays?
Biofilm kill mix: 5

Results for NNC(=O)CN1C(=O)CN=C(c2ccccc2)c2cc(Br)ccc21 ?
Biofilm kill mix: 19

Results for CCOc1cc(C2C(C#N)=C(N)Oc3c2c(=O)oc2ccccc32)ccc1OC(=O)c1cccs1 (stereo unspecified) ?
Biofilm kill mix: 5

How did O=P(N[C@@H](c1ccccc1)[C@@H]1C[C@H]1CO)(c1ccccc1)c1ccccc1 do in these assays?
Biofilm kill mix: 9

What do the screens show for `CCN1CCN(S(=O)(=O)c2cnc(Cl)c(Br)c2)CC1`?
Biofilm kill mix: 11

What do the screens show for `C/C(=N\N1CCCCCC1)c1c(O)n(-c2ccccc2)c(=O)[nH]c1=O`?
Biofilm kill mix: 4

How did COc1ccc(OC)c2c1CCC1NCCOC21 (stereo unspecified) do in these assays?
Biofilm kill mix: 10
